GIV-Gai inh: inhibitors of GIV peptide binding to Galpha-i3, primary screen, biochemical, fluorescence polarization, FITC-GIV GBA peptide, rat Galphai3 | 90 min; active compounds read low; scaled: aluminum fluoride 0%, vehicle 100% | percent of control (FP), % (test concentration not listed) | 0.42% of 210,000 active | Guanine nucleotide-binding protein G(i) subunit alpha-3 (Rattus norvegicus), P08753 | AID 1224905, 2016;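 active means replicate mean at 85% of control or lower, very high polarization wells dropped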;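 further: lower values mean more displacement of the GIV peptide from Galpha-i3; wells of about 15 µL received 100 nL stock; the first replicate is given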
Target sequence (P08753 whole entry, looked up): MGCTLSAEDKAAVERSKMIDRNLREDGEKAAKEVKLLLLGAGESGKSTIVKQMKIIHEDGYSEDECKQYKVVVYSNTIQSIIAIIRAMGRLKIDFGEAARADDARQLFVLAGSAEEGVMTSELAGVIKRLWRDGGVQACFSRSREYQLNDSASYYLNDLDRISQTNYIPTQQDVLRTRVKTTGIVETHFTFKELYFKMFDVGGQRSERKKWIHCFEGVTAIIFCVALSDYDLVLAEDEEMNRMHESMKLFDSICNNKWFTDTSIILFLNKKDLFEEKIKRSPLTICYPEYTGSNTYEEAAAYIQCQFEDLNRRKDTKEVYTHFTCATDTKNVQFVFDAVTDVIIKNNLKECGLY
Sa growth inh: S. aureus growth inhibition at 42 and 30 °C, primary screen, LtaS inhibitor project, RN4220, two temperatures; OD600, 20 h, 42 °C; active compounds read low; 0.53% of 170,000 active; relative growth, % (concentration not given with the values);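 active means growth at 42 °C up to 50% and 20 or more points under that at 30 °C, or under 10% at both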;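 further: 300 nL library stock went into each well; scaled to the means of positive and negative controls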
HCMV UL50-53 inh: inhibitors of HCMV UL50-UL53 interaction, biochemical, HTRF. 0.15% of 190,000 active. AID 1918969, 2023. inhibition, % (concentration not given with the values). normalized percent inhibition. HCMV UL50-UL53 nuclear egress complex (human cytomegalovirus);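 active means both replicates at 50% or more, plus weaker picks with an unusually low signal ratio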;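 further: stock transfer was 100 nL into about 20 µL; 0% = negative control wells and 100% = wells with untagged competitor protein; inactives centre near -12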
Sa growth inh second temp: further read-out of Sa growth inh, marked with its call; relative growth, %; measured here: growth at 30 °C;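 optical density after 20 h as mean of two plates; 100% = untreated growth and lower means inhibition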
Starred values were filed as active, the others as inactive; / = not tested or not shown; & = joins results of further samples.

SMILES | GIV-Gai inh | Sa growth inh | Sa growth inh second temp | HCMV UL50-53 inh
CC(C)(C)c1ccc(OCCOCCn2c(-c3ccc(Cl)cc3)nc3ccccc3c2=O)cc1 | 107 | 94 | 102 | 15
CCCc1cc(=O)n2nc(N3CCC(C(=O)N4CCCC4)CC3)sc2n1 | 105 | 94 | 98 | 3
Cc1nnc(-c2ccc(S(=O)(=O)NC3CC3)s2)o1 | 107 | / | / | -58
O/N=C/C1=CC(CC(O)CN2CCOCC2)c2ccccc21 (stereo not given) | 99 | 80 | 90 | -25
CN(C(=O)CSc1nc2ncccc2[nH]1)C1CCCCC1 | 106 | 86 | 85 | -32
Cc1cc(C)cc(NC(=O)CN2CCC(NC(=O)Cc3ccccc3)CC2)c1 | 107 | 94 | 81 | 4
COC(=O)c1c(C)oc(C)c1S(=O)(=O)N1CCC(O)(c2ccc(Cl)cc2)CC1 | 104 | 105 | 100 | 2
COC(=O)c1ccccc1NC(=O)Cn1nc(C(F)(F)F)c2c1CCCC2 | 106 | 99 | 96 | 5
COc1ccc(OC)c(S(=O)(=O)NCc2cn3ccccc3n2)c1 | 112 | 99 | 92 | /
CCOc1ccc(Oc2ncnc3oc(C)c(C)c23)cc1 | 99 | / | / | -28
O=C(O)c1ccc(Cn2c(SCc3ccccc3F)nc3ccncc32)cc1 | 104 | 99 | 86 | /
Cc1c(C(=O)N2CCN(c3ccccn3)CC2)sc2ncnc(N3CCOCC3)c12 | 105 | / | / | -18
COc1ccc(-c2noc(CSCC(=O)N3CCc4ccccc43)n2)cc1OC | 100 | / | / | -10
COC(=O)CCn1cc(F)c(N)nc1=O | / | 92 | 97 | 5
CC(C)NC(=O)c1sc2ncccc2c1-n1cccc1 | 110 | 105 | 98 | /
CCOC(=O)c1cc(S(=O)(=O)N2CCCC2C(=O)NC(C)(C)C)cn1C (stereo not given) | 99 | / | / | -10
O=C(Cn1c(CC(=O)N2CCCC2)nc2ccccc21)NCc1ccccc1 | 107 | 116 | 100 | -19
COC(=O)c1cn(CC(=O)N2CCCCC2C)c2ccccc12 (stereo not given) | / | 116 | 81 | -9
COC(=O)C1=C(O)/C(=C\c2ccc(CNS(=O)(=O)c3ccc(Br)cc3)o2)N=C1C | 128 | 84 | 70 | -81
COc1cccc(-c2nc(SCC(=O)Nc3ccc4c(c3)OCO4)c(-c3ccccc3)[nH]2)c1 | 100 | 105 | 71 | -14
Cc1cc(C)nc(SCC(=O)OCC(=O)c2ccc3c(c2)OCO3)n1 | / | 93 | 94 | -6
CC(=O)OC1OCCOC1NC(=S)Nc1cccc(C(F)(F)F)c1 (stereo not given) | / | 107 | 91 | -15
O=S(=O)(c1ccc2c(c1)Cc1ccccc1-2)N1CCOCC1 | 98 | 96 | 109 | 7
COc1ccc(NS(=O)(=O)c2cc(N3C(=O)CCS3(=O)=O)ccc2OC)cc1 | 97 | / | / | -12
O=C(NCC1CCCCC1)c1ccc2c(c1)OCCO2 | / | 103 | 95 | 1

4 compounds from above, ordered by SMILES length, lowest first:
SMILES | GIV-Gai inh | Sa growth inh | Sa growth inh second temp | HCMV UL50-53 inh
CCOc1ccc(Oc2ncnc3oc(C)c(C)c23)cc1 | 99 | / | / | -28
CN(C(=O)CSc1nc2ncccc2[nH]1)C1CCCCC1 | 106 | 86 | 85 | -32
COc1ccc(OC)c(S(=O)(=O)NCc2cn3ccccc3n2)c1 | 112 | 99 | 92 | /
COc1cccc(-c2nc(SCC(=O)Nc3ccc4c(c3)OCO4)c(-c3ccccc3)[nH]2)c1 | 100 | 105 | 71 | -14

(more compounds)
SMILES | GIV-Gai inh | Sa growth inh | Sa growth inh second temp | HCMV UL50-53 inh
COc1ccc(CNC(=O)c2nn(C)c3c2CS(=O)(=O)c2ccccc2-3)cc1 | 99 | 85 | 76 | -20
CC(C)(C)N1CCN(C(C)(C)C)C1=O | 102 | 86 | 84 | /
CC(C)N(C(=O)Cn1nnc2ccccc21)C(C(=O)NCc1ccco1)c1ccccc1 (stereo not given) | 101 | 114 | 82 | -22
COc1ccc(C2c3c(n(C)c4ccccc34)C(=O)N2CC(=O)Nc2cc(C)cc(C)c2)cc1 (stereo not given) | 105 | / | / | 0
CC(C)N(Cc1ccccc1)C(=O)CN1C(=O)COc2ccc(S(=O)(=O)NC3CCCC3)cc21 | 107 | 115 | 87 | /
Cc1cc(N2CCOCC2)nc2ccc(NC(=O)Nc3ccc(Br)cc3)cc12 | 100 | / | / | 3
O=C(CC1C(=O)N(c2ccccc2)C(=O)N1CCc1cccs1)Nc1ccc(F)cc1 (stereo not given) | 102 | 113 | 86 | -38
CCOC(=O)c1nc2ccccc2n(Cc2cccc(Cl)c2)c1=O | 93 | / | / | 8
N#CCNC(=O)c1sc2ccccc2c1Cl | 99 | 118 | 97 | -26
CCCCCCOC(=O)C1=C(C)NC(=O)NC1c1cc2c(cc1Br)OCO2 (stereo not given) | 103 | / | / | 2
COc1cccc(N2CCN(C(=O)c3cnn(-c4ccc(C)cc4C)c3C3CCN(C(=O)OC(C)(C)C)CC3)CC2)c1 | 101 | 95 | 89 | /
O=C(CSCc1nc(-c2ccccc2)no1)N1CCc2ccccc21 | 100 | / | / | 0
CCc1nc2ccccc2n1CC(O)COc1ccc(C)cc1C (stereo not given) | 112 | / | / | -27
O=C(NCCCN1CCN(c2ccc(F)cc2)CC1)c1cccn2c(=O)c3ccccc3nc12 | 103 | 99 | 89 | /
COC(=O)c1ccc(NS(=O)(=O)c2ccc(-n3cccn3)cc2)cc1 | 109 | 85 | 83 | /
O=C(CSc1cn(CC(=O)N2CCCCC2)c2ccccc12)NCc1ccccc1 | 106 | 105 | 82 | /
CN(C)N=Nc1ccc(S(N)(=O)=O)cc1 | 99 | 101 | 82 | -18
Cc1ccc(-c2ccc(C#N)c(=O)n2CC(=O)N(C)C)cc1 | 105 | 132 | 87 | -2
CCc1c(C)nc(N2CCOCC2)[nH]c1=O | 106 | 120 | 98 | /
Cc1ccc(C)n1CCN1CCN(C(=O)c2cccc(C(F)(F)F)c2)CC1 | 101 | 88 | 72 | 1
CCOc1ccccc1NC(=O)COC(=O)C1CCC(=O)N1 (stereo not given) | / | 89 | 94 | -6
CN1C(=O)C(=Cc2ccc(O)cc2)C(=O)N(C)C1=S | 108 | 101 | 59 | 12
NC(=O)C1(C(N)=O)CCC1 | 103 | 108 | 85 | -4
CCCCNC(=O)c1c(N)n(/N=C/c2cccnc2)c2nc3ccccc3nc12 | 102 | 104 | 99 | 5
Cc1[nH]c2ccccc2c1/C=C(\C#N)C(=O)NCc1ccco1 | 100 | 105 | 111 | -21

Whole records, looked up by structure. Screens in order: GIV-Gai inh, Sa growth inh, Sa growth inh second temp, HCMV UL50-53 inh
Shown for `CC(C)(C)N1CCN(C(C)(C)C)C1=O` = 102, 86, 84, /
Shown for `CC(C)N(C(=O)Cn1nnc2ccccc21)C(C(=O)NCc1ccco1)c1ccccc1` (stereo not given) = 101, 114, 82, -22
Shown for `Cc1cc(N2CCOCC2)nc2ccc(NC(=O)Nc3ccc(Br)cc3)cc12` = 100, /, /, 3
Shown for `CN1C(=O)C(=Cc2ccc(O)cc2)C(=O)N(C)C1=S` = 108, 101, 59, 12
Shown for `O=C(CSc1cn(CC(=O)N2CCCCC2)c2ccccc12)NCc1ccccc1` = 106, 105, 82, /

Continuation:
SMILES | GIV-Gai inh | Sa growth inh | Sa growth inh second temp | HCMV UL50-53 inh
CCOC(=O)c1c[nH]c2ccccc2c1=O | 101 | / | / | -12
O=C(C1CCCN(c2ccc3cc(S(=O)(=O)N4CCCC4)ccc3n2)C1)N1CCN(c2ccccc2)CC1 (stereo not given) | 110 | / | / | -33
COc1ccc(CNC(=O)C2CCN(C(=O)c3oc4cc5sc(N(C)C)nc5cc4c3C)CC2)cc1 | 103 | / | / | -19
CCc1ccc(/C=C2/C(=O)N(C)c3ccccc32)cc1 | / | 82 | 69 | -20
Cc1ccc(CCNC(=O)c2cc3ccccn3n2)cc1 | 104 | 78 | 81 | /
O=C1NC(=O)/C(=C/c2ccc3nccnc3c2)S1 | 95 | / | / | -33&-39&-39&-80
CC1(C(=O)NC2CCCC2)Cn2c(cc3sccc32)C(=O)N1Cc1ccc(F)cc1 (stereo not given) | 95 | / | / | -9
O=C(Cn1c(-c2cccs2)cc2ccccc21)NCCC1=CCCCC1 | 105 | 110 | 101 | -17
O=C(NCCCn1ccnc1)c1cc2ccccc2oc1=O | / | 121 | 84 | -114
CCOc1ccc(-n2c(O)c(/C=N/Nc3nc(C)cc(C)n3)c3ccccc3c2=O)cc1 | / | 92 | 90 | 5
O=C1CNC(=S)N1c1ccccc1 | 104 | 69&96 | 86&79 | -15&-13
CC(=O)NC(NC(C)=O)c1ccc2c(c1)OCO2 | 102 | 92 | 79 | -5
O=C(NCc1cccnc1)c1nc2ccccc2c(=O)[nH]1 | 102 | 111 | 87 | -8
CCOc1ccc(C(=O)c2cn(CC(=O)Nc3ccc(C)c(Cl)c3)c3ccc(OCC)cc3c2=O)cc1 | 110 | 112 | 84 | 2
Cc1c(C(=O)N2CCCC2)sc(NC(=O)c2cccs2)c1C#N | / | 111 | 69 | -14
C=CCN(CC=C)S(=O)(=O)c1ccc(C(=O)Nc2nc3ccc(S(C)(=O)=O)cc3s2)cc1 | 106 | / | / | -1
O=C(NCC(c1cccnc1)N1CCN(c2ccccc2)CC1)c1ccc(F)cc1 (stereo not given) | 105 | / | / | -16
O=C(NCCCN1CCCC1)c1cc2c(s1)-c1ccccc1SC2 | 108 | 111 | 99 | -19
COc1ccc(N2CC(NC(=O)c3ccco3)CC2=O)cc1 (stereo not given) | 94 | 99 | 87 | /
COc1ccc(-c2nnc(C3CCN(C(=O)c4c(F)cccc4F)CC3)o2)cc1 | 110 | 99 | 90 | /
CCOc1ccccc1C1C(C(=O)Nc2ccccc2)=C(C)Nc2nc(SCC(=O)c3ccc(C)cc3)nn21 (stereo not given) | 101 | 127 | 83 | /
CNC(=O)COc1ccc(Nc2nnc(-c3ccc(C)c(S(=O)(=O)NC(C)(C)C)c3)c3ccccc23)cc1 | 107 | 103 | 100 | -56
Clc1cccc(-c2noc(-c3ccsc3)n2)c1 | 103 | 102 | 98 | 1
N#CC(C(=O)c1cccs1)=C1SCCS1 | 103 | 110 | 90 | -69
Cc1cc(=O)n2nc(N3CCC(C(=O)NCc4cccc(Cl)c4)CC3)sc2n1 | 104 | / | / | -31

(list continues)
SMILES | GIV-Gai inh | Sa growth inh | Sa growth inh second temp | HCMV UL50-53 inh
CCOC(=O)CN1CSC2=C(C#N)C(c3ccc(OC)cc3)CC(=O)N2C1 (stereo not given) | 118 | 77 | 68 | -27
CCn1c(=NC(=O)C2CC2)sc2c(OC)ccc(OC)c21 | 105 | 104 | 92 | 2
O=C(COc1ncnc2c1cnn2-c1ccccc1)N1CCN(S(=O)(=O)c2ccc(Cl)cc2)CC1 | / | 94 | 94 | -14
CC1(C)CC(=O)c2c(nn(-c3ccccc3)c2N)C1 | 96 | 110 | 91 | /
CN(C)S(=O)(=O)NCC1CCCO1 (stereo not given) | 100 | 85 | 85 | -24
CCOc1ccc(-c2ccc(CO)o2)cc1N | 101 | 90 | 84 | /
CCOc1ccc(NC(=O)c2c(NCc3cc(OC)c(OC)cc3OC)sc3c2CCCC3)cc1 | 96 | 82 | 100 | /
CCN(c1ccccc1)S(=O)(=O)c1ccc(C(=O)OCC#N)cc1 | / | 86 | 96 | -27
Cc1cc(N(C)Cc2ccccc2)n2nc(-c3ccc(C(C)(C)C)cc3)nc2n1 | 113 | 96 | 90 | -16
NC(=O)c1ccc[n+](CCO)c1 | 102 | 89 | 83 | -32
COc1cc2c(cc1OC)CN(C(=O)c1cccc(S(=O)(=O)N3CCCCC3)c1)CC2 | / | 104 | 90 | -27
Cc1ccc(C)c(N2CCN(C(=O)c3ccc4nc(N5CCOCC5)sc4c3)CC2)c1 | 104 | 101 | 94 | -7
Cc1nc2cc3c(cc2s1)OCO3 | / | 82 | 98 | 12
Cc1ccc2c(Sc3ccc(Cl)cc3)c(C(=O)NCc3cccnc3)[nH]c2c1 | 101 | / | / | 14
COC(=O)C(C)NC(=O)N1CCC2(CC1)NC(=O)c1ccccc1O2 (stereo not given) | 99 | 89 | 90 | -30
CCc1nn2c(=O)cc(CSc3nnc(N)s3)nc2s1 | 104 | 91 | 89 | -6
COc1ccc(OC)c(S(=O)(=O)Nc2ccc(N3CCCC3)cc2C(=O)O)c1 | 101 | / | / | -38
Cc1cc(N2C(=O)CCS2(=O)=O)cc(C)c1S(=O)(=O)NC(C)C | 100 | / | / | -19
C=C(C)c1cccc(C(C)(C)NC(=O)NNc2nc(C)cc(C)n2)c1 | / | 115 | 97 | 3
CC(=O)c1cccc(N(C(=O)Cn2nnc3ccccc32)C(C(=O)NCc2ccccc2)c2ccc(F)cc2)c1 (stereo not given) | 107 | 80 | 89 | 12
CCCCc1ccc(NC(=O)CC)c(C)c1 | 113 | 101 | 92 | 1
CCN(CC(=O)Nc1ccc(S(N)(=O)=O)cc1)CC(=O)Nc1cc(Cl)ccc1C | / | 78 | 91 | -13
O=C(c1ccc2c(c1)N(Cc1ccc(F)cc1)C(=O)c1ccccc1S2(=O)=O)N1CCCC1 | 102 | 104 | 80 | -14
O=c1ccc2ccccc2n1Nc1ccc(Br)cc1 | 105 | 101 | 99 | -17
O=C(C1CCCN(Cc2ccccc2)C1)N1CCCCCC1 (stereo not given) | 103 | 109 | 84 | -1

Screening data (PubChem)
